TRPV1 potentiator – potentiators of human vanilloid receptor 1 (TRPV1); TRPV1-expressing cells, Fluo-8 calcium influx, capsaicin EC20 potentiation; host cell line not named in the record; control for the full effect not named in the record; 320,000 tested, 0.02% active; potentiation, % at 8.33 µM; active means potentiation above 80%; inconclusive means 30% to 80%; inactive means below 30%; note: 0% is about no effect
Target sequence (Q8NER1 whole entry, looked up): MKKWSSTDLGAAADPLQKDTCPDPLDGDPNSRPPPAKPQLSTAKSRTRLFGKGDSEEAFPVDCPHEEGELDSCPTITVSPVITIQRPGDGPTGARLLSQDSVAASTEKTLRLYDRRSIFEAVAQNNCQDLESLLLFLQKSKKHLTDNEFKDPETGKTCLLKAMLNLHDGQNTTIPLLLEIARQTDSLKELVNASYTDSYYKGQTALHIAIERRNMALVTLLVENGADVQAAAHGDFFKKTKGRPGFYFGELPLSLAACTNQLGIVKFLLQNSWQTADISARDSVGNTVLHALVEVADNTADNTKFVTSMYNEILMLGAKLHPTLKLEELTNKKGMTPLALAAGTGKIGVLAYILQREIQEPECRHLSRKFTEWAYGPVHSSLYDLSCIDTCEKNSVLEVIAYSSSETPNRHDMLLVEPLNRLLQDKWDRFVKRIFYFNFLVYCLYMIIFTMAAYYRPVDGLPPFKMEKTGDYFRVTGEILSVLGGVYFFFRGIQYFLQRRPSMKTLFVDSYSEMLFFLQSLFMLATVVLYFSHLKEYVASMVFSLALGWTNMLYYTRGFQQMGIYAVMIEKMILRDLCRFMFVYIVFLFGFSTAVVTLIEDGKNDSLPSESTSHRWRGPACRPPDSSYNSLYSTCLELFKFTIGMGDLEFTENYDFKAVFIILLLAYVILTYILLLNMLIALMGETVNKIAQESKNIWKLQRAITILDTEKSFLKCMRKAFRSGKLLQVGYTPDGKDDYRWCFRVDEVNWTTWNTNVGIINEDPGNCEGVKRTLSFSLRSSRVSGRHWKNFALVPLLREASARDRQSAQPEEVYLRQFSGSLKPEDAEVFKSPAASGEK
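Fluo-8 calcium influx in TRPV1-expressing cells, kinetic read (ex 480/em 520 nm). Compound added and read 3 min for agonist activity, followed by capsaicin at EC20 final and 2 min further read for enhancement.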
gsp agonist – activates gsp, the McCune-Albright syndrome mutation; AID 624287; Potency, µM (doses to about 76.9 µM), without a hit: at the top dose activation (cAMP increase), actives largely listed as activators; gsp mutant cells, cAMP HTRF, 30 min; control for the full effect not named in the record; 340,000 tested, 0.13% active; active = well fitted activation curve with a large enough effect; inconclusive = small, poorly fitted or top-dose-only effect, or another doubt; inactive = no such curve, though single readings can be large or run the other way; cell line not stated here;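 note: phosphodiesterase inhibitor Ro 20-1724 added with compounds to block cAMP breakdown; potency is the fitted concentration of half-maximal effect; nearly all actives have a fitted effect of over 60% in size; about a fifth of the inactives were tested at one dose only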
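Cells in DMEM/10% FBS with G418 were pretreated with compounds in DMSO plus […] (300 uM stock) for 30 min at 37C. cAMP was measured by HTRF (cAMP-d2 plus anti-cAMP antibody-K) after 30 min at room temperature.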
ClpP mod – qHTS Assay for Activators of ClpP; ATP-dependent Clp protease proteolytic subunit (Bacillus subtilis (strain 168)), P80244; purified B. subtilis ClpP, FRET peptide cleavage, 20 min; Potency, µM (series often up to 57.5 µM), for inactives: top-dose activity change, negative = active; 340,000 tested, 1.9% active; AID 651965, 2013; active = well fitted falling curve with a large enough effect; inconclusive = small, poorly fitted or top-dose-only effect; inactive = no such curve, though single readings can be large or run the other way; note: potency is the fitted concentration of half-maximal effect; the source files actives as falling curves though it sought activators and does not explain the sign; nearly all actives have a fitted effect of over 65% in size; many hits overshoot -100%
Target sequence (P80244 whole entry, looked up): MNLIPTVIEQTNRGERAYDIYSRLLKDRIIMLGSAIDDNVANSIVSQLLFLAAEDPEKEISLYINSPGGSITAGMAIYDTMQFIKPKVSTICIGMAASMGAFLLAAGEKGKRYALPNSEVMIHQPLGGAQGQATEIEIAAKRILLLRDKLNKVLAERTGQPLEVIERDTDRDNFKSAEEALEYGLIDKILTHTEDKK
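Buffer: 100 mM Tris/HCl pH8, 100 mM KCl, 0.05% low protease BSA, 2.5% glycerol, 0.01% Tween-20. ClpP 10 microg/mL final; 20 min RT; delta FRET normalized to ADEP and DMSO controls.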
D2 potentiator – positive allosteric modulators of human D2 dopamine receptor | DiscoveRx D2 beta-arrestin cells, luminescence, 90 min; 100% = 57 uM dopamine signal | potentiation, % (no concentration beside the values) | 360,000 tested, 0.23% active | AID 624464; active = potentiation of 50% or more; inconclusive = 30% to 50%; inactive = 30% or less;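 note: compound concentration not given in the record; tested on top of an EC20 dose of dopamine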
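D2 cells co-treated with compound plus 50 nM dopamine (EC20) for 90 min at 37 deg C to detect potentiation. Beta-arrestin recruitment was read as enzyme-fragment luminescence after 1 h at ambient temperature. Full response was set by 57 uM dopamine.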
Sfp PPTase inh – inhibitors of Bacillus subtilis Sfp phosphopantetheinyl transferase | Potency, µM, inactives show max response, negative = inhibition, actives largely listed as inhibitors | 310,000 tested, 3.5% active | Biochemical Sfp PPTase activity, qHTS | AID 1490 | Q9F4F7; active = well fitted inhibition curve with a large enough effect; inconclusive = small, poorly fitted or top-dose-only effect, or another doubt; inactive = no such curve, though single readings can be large or run the other way;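 note: the enzyme is Sfp with the accession as filed and its product quenches rhodamine fluorescence; potency is the fitted concentration of half-maximal effect; 0% = enzyme reaction without inhibitor and -100% = no enzyme wells; top concentration of the series not given in the record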
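Step 1, compound plus 15 nM Sfp-PPTase, 15 min, room temperature. Step 2, add rhodamine-CoA (5 uM) and BHQ-2-YbbR (12.5 uM). Step 3, read 525/598 nm fluorescence at 0 and 30 min.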
Menin-MLL FL inh – inhibitors of human menin-MLL interaction, wild-type MLL peptide. 290,000 tested, under 10 active. Fluorescence polarization, fluorescein-MLL peptide displacement from menin. FP activity change, % at 61.4 µM; inconclusive = falling polarisation curve, or a change in total fluorescence; inactive = total fluorescence flat and polarisation flat or rising; no compound was filed as active; the % refers to the polarisation; negative = inhibition;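 note: % of control where 0% means no effect; inhibitors lower the polarisation; unlabelled MLL peptide was the positive control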
gsp antag – antagonizes gsp, the McCune-Albright syndrome mutation | gsp-mutant cells, cAMP HTRF, 30 min; control for the full effect not named in the record | Potency, µM (top dose mostly 76.9 µM), without a hit: at the top dose activity change, negative = inhibition, hits mostly inhibitors | 340,000 tested, 0.4% active | AID 624288; active = falling curve of any shape with a large fitted effect; inconclusive = falling curve, mostly with a smaller effect; inactive = flat or rising curve; cell line not stated here;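 note: intracellular cAMP measured with PDE inhibitor Ro 20-1724 present during compound exposure; potency is the fitted concentration of half-maximal effect; % is set by controls: 0 for no effect and ±100 for the full control effect; nearly all actives have a fitted effect of over 65% in size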
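HTRF cAMP measurement after 30 min RT detection following 30 min, 37C compound treatment alongside […] (added as 300 uM solution) in G418-selected cells seeded at 2000/well and grown 16–24 h.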
* hit, by the source's call; ? = inconclusive; . = no result given; & = joins results of further samples; ! = not active in a repeat; [ ] = dose if it differs, or a comment.

SMILES	TRPV1 potentiator	gsp agonist	ClpP mod	D2 potentiator	Sfp PPTase inh	Menin-MLL FL inh	gsp antag
CN1C(=O)C(=Cc2cn(CC(=O)N3CCCCC3)c3ccccc23)C(=O)N(C)C1=O	10	8%	.	-7	2%	14	-10%
CCCc1[nH]nc2c1C1(C(=O)N(Cc3ccccc3)c3ccccc31)C(C(=O)OC)=C(N)O2 (centres undefined)	16	-40%[inhibitor]	0.1%	-8	-12%	3.2	-16%
COc1ccc(S(=O)(=O)N(C)C[C@H]2OCCCC[C@@H](C)Oc3ccc(N(C)C)cc3C(=O)N([C@H](C)CO)C[C@@H]2C)cc1	.	-46%[inhibitor]	-2.1%	-1	.	.	.
O=c1[nH]c(=S)n(Cc2ccc(F)cc2)c(O)c1/C=N/N1CCCCC1	3	10%	-21%	-4	-4%	7.4	-4%
COc1nc2ccccc2c(=O)n1-c1ccc(Cl)cc1	-52	-11%[15.4 µM]	-1.6%	3	-12%	8.0	10%
Cc1ccc(NC(=O)c2cn(CCC#N)nc2-c2ccc3c(c2)OCCO3)c([N+](=O)[O-])c1	-9	-16%	28µM*	-20	12%	-0.8	4%
CCC(=O)N1CC(=O)Nc2ccc(Br)cc2C1c1ccccc1 (centres undefined)	-2	-151%[inhibitor]	.	-5	3%	-3.7	4%
N#CC1=C(N)Oc2n[nH]c(-c3ccccc3)c2C1c1ccncc1 (centres undefined)	-3	26%	-4.8%	-1	-1%	4.0	18%
Clc1cnc(Oc2ccc(Oc3ncc(Cl)cc3Cl)cc2)c(Cl)c1	-3	3%	-0.6%	-4	17%&-9%	1.9&2.9	8%
O=C(COc1ccc2ccccc2c1)N1CCN(C2CCN(Cc3ccccc3)CC2)CC1	5	-20%	-3.3%	-8	0%	3.5	7%
Cc1[nH]n(-c2ccccc2)c(=O)c1C(c1ccc([N+](=O)[O-])cc1)c1c(C)[nH]n(-c2ccccc2)c1=O	-9	?	1.5%	-8	-11%	3.3	25µM*
CC1CC(OC(=O)c2ccccc2)CC(C)N1C (centres undefined)	-5	-12%	0.6%	-4	-6%	7.3	2%
CC(C)CN1Cc2ccccc2-n2nncc2C1	.	-34%[inhibitor]	1.0%	-2	.	.	.
CN1OCC2Cn3c(nc4ccccc43)C21 (centres undefined)	-8	?	-1.5%	-6	2%	-0.1	-9%
O=c1c2ccccc2nc(-c2cccs2)n1-c1cnccn1	-15	15%	-4.2%	-29	10%	-2.8	7%[15.4 µM]
CCCCc1ccc(C(=O)O)nc1	5	.	0.8%	-5	28µM*	?	-1%
CNC(=O)Oc1ccc2c(c1)[C@]1(C)CCN(C)[C@@H]1N2C	4&7	.	3.6%&-5.9%&-12%	-2&10	14%&9%&27%	4.4&3.5&-2.7&3.7	2%&0%
Cc1oc(-c2ccccc2Cl)nc1CN1C(=O)CN=C(c2ccccc2)c2ccccc21	-10	-29%	-0.2%	0	-19%	-1.5	?
Cc1ccc(CN2CC3CC(C2)c2cccc(=O)n2C3)cc1 (centres undefined)	2	-10%	-1.5%	-5	13%	-2.7	0%
CCCCOC(=O)c1ccccc1C(=O)OCCCC	-12	-8%	-1.9%	1	25%	-0.6	-6%
CN1CC=C(/C=C/c2ccc(-c3ccccc3)cc2)CC1	-1	-4%	-7.1%	-7	-24%	0.5	6%
Cc1sc2ncn(CC(=O)NCCCC(=O)N3CCC4(CC3)OCCO4)c(=O)c2c1C	3	?	-0.3%	-1	22%	5.7	13%
CC(=O)N1CCN(c2ccc(N=Cc3c(O)n(Cc4ccccc4)c(=O)[nH]c3=O)cc2)CC1	4	22%	-2.2%	-5	10%	?	-1%
CCOC(=O)c1cccc(NC(=O)c2c(O)[nH]c(=O)[nH]c2=O)c1	.	.	1.5%	-4	.	.	8%
C=C1C(=O)OC2CC3(C)OC3CCC(C)=CC(OC(C)=O)C12 (centres undefined)	.	?	-5.1%	-14	.	.	14%
CCc1ccccc1N1C(=O)/C(=C/c2ccc(N3CCN(C)CC3)o2)C(=O)NC1=S	3	0%	0.4%	-15	-7%	?	-7%
CCC(C(=O)N1CCC2(CC1)OCCO2)n1c2ccccc2c2nc(=O)cc(C)n21 (centres undefined)	-25	-9%	3.3%	-11	5%	.	-8%
N#Cc1c(Br)n(C2OC(CO)C(O)C2O)c2ncnc(N)c12 (centres undefined)	.	19%	?	.	.	.	6%
CCC(=NCCc1c[nH]c2ccccc12)c1c(O)n(-c2ccc(C)cc2)c(=O)[nH]c1=O	25	?	-3.5%	4	-25%	9.4	-27%
COc1ccc(-c2cc(C(F)(F)F)n3nc(C(=O)N4CCC5(CC4)OCCO5)cc3n2)cc1OC	16	19%	-1.6%	-4	0%	4.0	0%
CC(=O)Oc1ccccc1C(=O)Nc1ncc([N+](=O)[O-])s1	5	.	.	.	50µM*!	1.7&5.8	.
Cc1ccc(-n2c(C)nc3ccccc3c2=O)cc1C	0	-3%	-3.1%	-8	-3%	-1.5	5%
C=CCN1C(=O)NC(=O)/C(=C/C=C/c2ccccc2)C1=O	-2	-8%[15.4 µM]	-0.3%	7	28µM*	?	6%
Cc1cc(OC(=O)CCNC(=O)OC(C)(C)C)c2c3c(c(=O)oc2c1)CCC3	-5	7%	2.0%	-14	2%	-0.6	-22%
O=C(CCCN1CCC(n2c(=O)[nH]c3ccccc32)CC1)c1ccc(F)cc1	-9	.	0.5%	-27	26%	-5.2[24.8 µM]	-5%
O=C(O)Cn1cc(/C=C2\C(=O)NC(=O)N(c3ccc(Cl)cc3)C2=O)c2ccccc21	4	1%	0.0%	2	?	?	3%
c1cncc(CNC2=NCCCCC2)c1	-10	15%	-0.2%	-7	8%	1.2	16%
COc1ccc(C(=O)CC2(CC(=O)c3ccc(OC)cc3)C(=O)N(C)C(=O)N(C)C2=O)cc1	15	-33%[inhibitor]	0.7%	-18	0%	1.4	7%
O=C1NC(=O)N(Cc2ccc(F)cc2)C(=O)/C1=C\C=C\c1ccco1	9	27%	1.4%	1	?	?	6%
CC(=O)OC(CC(=O)O)C[N+](C)(C)C (centres undefined)	6	.	1.9%	1	10%	-6.9	-2%
COP(=O)(NS(=O)(=O)c1ccccc1)OC	8	3%	2.1%	-6	17%	-3.1	4%
CC1([N+](=O)[O-])COP(=O)(NC2CC2)OC1 (centres undefined)	.	1%	0.5%	-4	.	.	5%
CCCCn1c(N)c(C(=O)NCCN2CCOCC2)c2nc3ccccc3nc21	3	8%	11µM*	5	-5%	2.5	10%
CC(=NCc1ccc2c(c1)OCO2)c1c(O)[nH]c(=O)[nH]c1=O	-2	-18%	0.2%	4	6%	0.6	8%
CCc1ccc(CNCCc2ccccc2F)cc1	-5	0%	-4.0%	-43	1%	2.1	15%
CN1C(=O)C(Cc2ccsc2)C(=O)N(C)C1=O	0	-21%	?	10	28µM*	1.1	4%
c1ccc2c(c1)OCC(C1=NCCN1)O2 (centres undefined)	4	.	2.4%	-18	10%&20%	4.2&1.8&-0.7	6%
c1ccc(-n2ccnc2)cc1	2	.	-0.4%	1	1%	1.3	1%
Cn1c(C(=O)N2CCC(C(=O)N3CCC4(CC3)OCCO4)CC2)cc2sccc21	-16	-51%[inhibitor]	0.2%	-6	8%	7.0	-1%
O=C(COC(=O)c1ccccc1)Nc1ccc(Cl)cc1C(=O)c1ccccc1	-24	-19%[15.4 µM]	-2.2%	1	-10%	-0.6	-24%
O=C(Cn1cnc2sc3c(c2c1=O)CCCC3)NCCCC(=O)N1CCC2(CC1)OCCO2	7	?	0.9%	7	25%	0.2	9%
Cc1cc(OC(C)C(=O)N[C@H](C(=O)O)c2ccccc2)c2c3c(c(=O)oc2c1)CCC3 (some centres undefined)	10	.	4.8%	-15	16%	1.3	-4%
CCOC(=O)C1CN(C)CCC1=O (centres undefined)	-4	?	-0.9%	3	27%	3.6	0%
CCS(=O)(=O)Nc1cccc(C(=C2CCCCC2)c2cnc[nH]2)c1	-13	.	0.9%	-19	.	5.5	-14%
CC[C@]12C=CCN3CCC4(c5cc(Br)c(OC)cc5N(C)C4[C@@](O)(C(=O)OC)[C@@H]1OC(C)=O)C32 (some centres undefined)	17	-15%	-1.1%	-5	-19%	-2.6	5%
Cc1ccc2c(c1)C1CN(C)CCC1N2S(=O)(=O)c1ccccc1 (centres undefined)	-16	-4%	-4.2%	-22	-2%	12	-10%
CCC(=O)Nc1cc(C(=O)O)ccc1S(=O)(=O)c1ccc(C)cc1	1	19%[15.4 µM]	1.0%	-2	2%	?	-6%
O=C1c2ccccc2C2(c3ccc(Cl)cc3)NCCN12 (centres undefined)	10	-10%	-0.3%	16	5%	-1.0	-22%
O=C1NC(=O)N(c2ccccc2F)C(=O)/C1=C/c1ccc(Oc2ccc([N+](=O)[O-])cn2)cc1	22	-45%[inhibitor]	-0.5%	-2	50µM*	9.3	-11%
O=C1c2ccccc2-c2cccc3cccc1c23	.	.	-10%	-2	-12%	-6.6	-10%

Record cards, from the list above. Screens in order: TRPV1 potentiator, gsp agonist, ClpP mod, D2 potentiator, Sfp PPTase inh, Menin-MLL FL inh, gsp antag
Results for CN1C(=O)C(Cc2ccsc2)C(=O)N(C)C1=O : 0, -21%, ?, 10, 28µM*, 1.1, 4%
Results for CCC(=O)Nc1cc(C(=O)O)ccc1S(=O)(=O)c1ccc(C)cc1 : 1, 19%[15.4 µM], 1.0%, -2, 2%, ?, -6%

(cont.)
SMILES	TRPV1 potentiator	gsp agonist	ClpP mod	D2 potentiator	Sfp PPTase inh	Menin-MLL FL inh	gsp antag
Cc1ccsc1C(=O)C1CCCN(Cc2cccc(-n3cccn3)c2)C1 (centres undefined)	5	3%[15.4 µM]	.	-7	?	?	-7%
O=C1CN(O)C(c2ccccc2)=c2cc(Cl)ccc2=N1	-12	11%	-1.5%	-2	21%&8%	-4.2&-5.2	1%
C=CCn1c(O)c(C(C)=Nc2ccc(C(=O)O)cc2)c(=O)[nH]c1=O	2	2%[15.4 µM]	.	1	-5%	3.8	2%
COc1ccc(NC(=O)c2ccc(COCC(F)(F)C(F)F)cc2)cc1	-16	-50%[inhibitor]	0.5%	-3	14%	-2.5	1%
CC(Cc1ccccc1)NC(=O)/C=C/C(=O)O (centres undefined)	-13	-15%[15.4 µM]	.	-6	0%	-3.6	7%

Compound activity (PubChem BioAssay)

A portion of the library; count on the stated rates, not on these rows.
